TRPML1 inh = qHTS for Inhibitors of the Human Mucolipin Transient Receptor Potential 1 (TRPML1) | Mucolipin-1 (Homo sapiens), Q9GZU1 | activity change, negative = inhibition, % (test concentration not listed) | hit rate 0.02% among 390,000 | TRPML1-inducible cells, Ca2+ dye fluorescence, FDSS; hits give low values; inhibition of EC80 agonist-evoked calcium signal | AID 624415, 2012; in the data active means activity change below about -50%; inconclusive means about -30% to -50%; inactive means above about -30%;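 note: stimulus is agonist 54-4 at its EC80 concentration; % is set by controls: 0 for no effect and ±100 for the full control effect; compound concentration not given in the record; the text of the record puts the active cut at -80%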
Target sequence (Q9GZU1 whole entry, looked up): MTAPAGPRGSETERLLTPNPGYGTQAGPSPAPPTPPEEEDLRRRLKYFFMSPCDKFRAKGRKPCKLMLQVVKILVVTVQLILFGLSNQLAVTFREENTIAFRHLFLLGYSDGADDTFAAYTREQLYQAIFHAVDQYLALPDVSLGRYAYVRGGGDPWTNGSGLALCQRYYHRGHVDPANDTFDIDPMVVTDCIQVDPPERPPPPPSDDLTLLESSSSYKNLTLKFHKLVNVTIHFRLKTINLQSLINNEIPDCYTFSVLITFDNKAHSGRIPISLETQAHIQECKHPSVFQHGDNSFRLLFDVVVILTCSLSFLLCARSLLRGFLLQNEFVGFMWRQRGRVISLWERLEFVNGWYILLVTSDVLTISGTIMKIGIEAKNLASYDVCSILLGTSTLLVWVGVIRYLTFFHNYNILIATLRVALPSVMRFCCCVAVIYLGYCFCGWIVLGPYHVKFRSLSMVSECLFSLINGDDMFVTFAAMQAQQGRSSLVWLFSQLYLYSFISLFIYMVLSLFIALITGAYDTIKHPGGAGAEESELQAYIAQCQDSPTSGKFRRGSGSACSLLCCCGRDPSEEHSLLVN
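TRPML1-DL cells, Tet-induced overnight (~16 h, 37 °C) at 1,500 cells/well, were loaded with Ca8 no-wash dye plus quencher for 45-90 min at room temperature. Compounds were pinned during FDSS kinetic reading; agonist 54-4 at EC80 (4 uM final) then added.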
Six1-Eya2 blk = qHTS Assay for Inhibitors of the Six1/Eya2 Interaction; AlphaScreen GST-Six1/His-Eya2 binding, biochemical; hits give low values; control for the full effect not named in the record; AID 651725, 2012; Homeobox protein SIX1 (Homo sapiens) + Protein phosphatase EYA2 (Homo sapiens), …; activity change, % (concentration not given with the values); hit rate 0.56% among 360,000; in the data active = activity change below about -65%; inconclusive = about -30% to -65%; inactive = above about -30%; note: % is set by controls: 0 for no effect and ±100 for the full control effect
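Six1/Eya2 binding was read as AlphaScreen signal after compounds were pinned into GST-Six1 plus His-tagged Eya2 (5X stock 250/500 nM) in pH 8.0 Tris/NaCl/TCEP buffer, beads added, then incubated 1 h, 37 C, dark.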
D2 PAM = Beta-Arrestin HTS for Positive Allosteric Modulators of the Human D2 Dopamine Receptor: Potentiators. D(2) dopamine receptor (Homo sapiens), P14416. DiscoveRx D2 beta-arrestin cells, luminescence, 90 min; 100% = 57 uM dopamine signal. potentiation, % (concentration not given with the values). hit rate 0.23% among 360,000. AID 624464, 2012; active = potentiation of 50% or more; inconclusive = 30% to 50%; inactive = 30% or less;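 note: compound concentration not given in the record; tested on top of an EC20 dose of dopamine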
Target sequence (P14416 whole entry, looked up): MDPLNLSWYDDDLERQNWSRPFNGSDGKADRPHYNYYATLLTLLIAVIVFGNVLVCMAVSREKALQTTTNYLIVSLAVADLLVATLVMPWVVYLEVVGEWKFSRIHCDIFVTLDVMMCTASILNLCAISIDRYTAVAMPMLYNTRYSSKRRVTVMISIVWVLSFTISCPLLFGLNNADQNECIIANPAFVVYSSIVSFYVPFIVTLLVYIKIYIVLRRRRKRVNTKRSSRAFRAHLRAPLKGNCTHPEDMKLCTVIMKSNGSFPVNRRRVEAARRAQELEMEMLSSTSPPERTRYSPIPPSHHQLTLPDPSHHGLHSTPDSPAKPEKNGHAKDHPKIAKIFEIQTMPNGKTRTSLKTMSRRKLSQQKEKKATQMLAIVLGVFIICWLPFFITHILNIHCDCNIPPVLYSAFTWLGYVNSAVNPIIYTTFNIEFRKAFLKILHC
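PathHunter D2 cells, attached overnight at 37 deg C, received compound in DMSO plus dopamine at EC20 (50 nM final) for 90 min at 37 deg C. Beta-arrestin recruitment was read as luminescence after 1 h with detection reagent at ambient temperature.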
D2 agonist = Beta-Arrestin HTS for Positive Allosteric Modulators of the Human D2 Dopamine Receptor: Agonists; D(2) dopamine receptor (Homo sapiens), P14416; DiscoveRx PathHunter D2 beta-arrestin, luminescence, 90 min; 100% = 57 uM dopamine signal; activation, % (test concentration not listed); hit rate 0.084% among 360,000; AID 624465, 2012; in the data active = activation above about 40%; inconclusive = about 15% to 40%; inactive = below about 15%; note: compound concentration not given in the record; the text of the record calls up to 30% inactive
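DiscoveRx PathHunter D2 beta-arrestin cells (2,100/well) attached overnight, then compound-stimulated 90 min at 37 C in HBSS/10 mM HEPES/0.1% Tween-20 buffer; beta-galactosidase complementation read by luminescence after 1 h at ambient temperature. Dopamine 57 uM final (EC100) as control.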
PINK1 expr mod = A Quantitative High throughput Screen to Identify Chemical Modulators of PINK1 Expression; PINK1 immunofluorescence, high-content cytometry, 24 h; hit rate 0.2% among 410,000; AID 624263, 2012; Potency, µM (titrated, usually from 76.6 µM), for the others: at the highest dose activation (PINK1 increase), actives largely listed as activators; active = well fitted activation curve with a large enough effect; inconclusive = small, poorly fitted or top-dose-only effect; inactive = flat fitted curve, though single readings scatter; cell line not stated here;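 note: potency is the fitted concentration of half-maximal effect; % of control where 0% means no effect; nearly all actives have a fitted effect of over 65% in size; a mitochondrial uncoupler was the plate control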
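Compound titrations (5 concentrations, 24 h) on a stable cell line; DMSO and CCCP controls. Endpoint: fixed-cell PINK1 immunofluorescence with mitochondrial, cell and nuclear markers, scanned by microplate cytometer.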
TRPML1 agonist = qHTS for Agonists of the Human Mucolipin Transient Receptor Potential 1 (TRPML1) | TRPML1-expressing cells, Ca2+ dye fluorescence, FDSS; host cell line not named in the record; reference of the full effect not given here | activation, % (no concentration beside the values) | hit rate 0.12% among 410,000 | AID 624414, 2012; in the data active = activation above about 50%; inconclusive = about 30% to 50%; inactive = below about 30%; note: 0% is about no effect; the text of the record puts the active cut at 80%
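Kinetic FDSS Ca2+ read in Tet-induced TRPML1-DL cells (ABD Ca8 dye plus quencher, 45-90 min RT loading): baseline, then compound, then 110 s agonist window; EC80 agonist 54-4 at 4uM final added afterwards for a 110 s antagonist window.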
An asterisk follows results filed as active; [ ] = dose if it differs, or a comment. Rows are unselected; overall some 1% were active at least once.

CN(C(=O)c1ccc(NC(=O)Cc2ccc(NC(=O)C3CCCN(C(=O)C4CCCC4)C3)cc2)cc1)C1CCCC1 (configuration not stated) was read as TRPML1 inh 27, Six1-Eya2 blk 3, D2 agonist -2.9, PINK1 expr mod 1.2% and TRPML1 agonist 0.3.
For CCSC1=NCCN1C(=O)Cc1ccc(-c2ccccc2)cc1 the results were TRPML1 inh -19, Six1-Eya2 blk 10, D2 PAM 6, D2 agonist 2.9, PINK1 expr mod 6.9% and TRPML1 agonist 0.1.
CCc1ccc(/C=C2\SC(N3CCOCC3)=NC2=O)cc1 was read as TRPML1 inh -19, Six1-Eya2 blk 0, D2 PAM 5, D2 agonist 2.2, PINK1 expr mod 4.1% and TRPML1 agonist -0.8.
`COc1cccc2cc(-c3csc(CCn4nc(C)cc4C)n3)c(=O)oc12` gave TRPML1 inh 30, Six1-Eya2 blk 1, D2 PAM 25, D2 agonist 1.2, PINK1 expr mod -1.5% and TRPML1 agonist 1.1.
For COc1ccc(-n2c(CCC(=O)O)ccc2-c2ccc(F)cc2)c(OC)c1 the results were TRPML1 inh 38, Six1-Eya2 blk -6, D2 PAM -10, D2 agonist 1.4, PINK1 expr mod -0.7% and TRPML1 agonist 0.9.
For CCOc1ccc(/C=C(\C#N)C(=O)Nc2sc3c(c2C(=O)OC)C(C(=O)OC)CC3)cc1OC (configuration not stated) the results were TRPML1 inh 9, PINK1 expr mod 11% and TRPML1 agonist 1.0.
`NS(=O)(=O)c1ccc(NC(=O)CSc2nnc(Cc3cccs3)n2-c2ccccc2)cc1` gave TRPML1 inh -2, Six1-Eya2 blk -1, D2 PAM -22, D2 agonist -2.6, PINK1 expr mod -1.7% and TRPML1 agonist -0.9.
CCCN(CC1CC1)c1cc2c(c3c1ccn3C)C1CCC2O1 (configuration not stated) was read as TRPML1 inh 0, Six1-Eya2 blk inconclusive, D2 PAM -12, D2 agonist -3.7, PINK1 expr mod 4.7% and TRPML1 agonist 0.1.
Screening CC(C)CCn1c(O)c(N=NC(=O)c2ccco2)c2ccccc21 returned TRPML1 inh -30, Six1-Eya2 blk -8, D2 PAM -7, D2 agonist -3.4, PINK1 expr mod -1.7% and TRPML1 agonist 0.3.
`Cc1ccc(NC(=O)CN(C)Cc2cc(=O)n3ccsc3n2)cc1` gave TRPML1 inh 15, Six1-Eya2 blk -1, D2 PAM 0, D2 agonist 4.9, PINK1 expr mod 0.3% and TRPML1 agonist 0.0.
For COc1ccc(NC(=O)/C=C/c2ccccc2)c([N+](=O)[O-])c1 the results were TRPML1 inh 48, Six1-Eya2 blk -6, D2 PAM 1, D2 agonist -3.7, PINK1 expr mod 11% and TRPML1 agonist 2.1.
Screening Cc1cccc(NCc2nnc3n2CCCCC3)c1C returned TRPML1 inh 27, PINK1 expr mod -3.9% and TRPML1 agonist 0.5.
CCN(CC)N=Nc1ccc(S(=O)(=O)Nc2c(C)n(C)n(-c3ccccc3)c2=O)cc1 was read as TRPML1 inh 18, Six1-Eya2 blk 0, D2 PAM -2, D2 agonist -2.1, PINK1 expr mod 8.3% and TRPML1 agonist 0.6.
`COc1ccc(OCc2cn3c(C)cc(C)nc3n2)cc1` gave TRPML1 inh -8, Six1-Eya2 blk -1, D2 PAM -1, D2 agonist 0.5, PINK1 expr mod 2.1% and TRPML1 agonist -0.3.
For CCOc1ccc(C(=O)Nc2ccc3nc(SCC(=O)N4CCc5ccccc54)sc3c2)cc1 the results were TRPML1 inh -8, PINK1 expr mod -0.4% and TRPML1 agonist -0.2.
Screening COc1cc(SC)ccc1C(=O)N1CC(C)OC(C)C1 (configuration not stated) returned TRPML1 inh 0, Six1-Eya2 blk 2, D2 PAM -2, D2 agonist -1.5, PINK1 expr mod -1.0% and TRPML1 agonist 1.6.
For CCOC(=O)c1c(C)[nH]c(C)c1S(=O)(=O)NCC(=O)N1CCN(c2cccc(C)c2)C(C)C1 (configuration not stated) the results were TRPML1 inh -2, PINK1 expr mod 2.1% and TRPML1 agonist 0.4.
Screening COCCN(Cc1cc2cc(C)ccc2nc1Cl)C(=O)Nc1ccccc1OC returned TRPML1 inh 20, Six1-Eya2 blk 2, D2 PAM 0, D2 agonist -2.5, PINK1 expr mod 1.4% and TRPML1 agonist 1.6.
Cc1nn(-c2ccccc2)c(C)c1/C=C1\C(=O)N(C)C(=S)N1C was read as TRPML1 inh -4, Six1-Eya2 blk -4, D2 PAM 7, D2 agonist 1.2, PINK1 expr mod 0.2% and TRPML1 agonist 2.3.
`Cc1ccc(S(=O)(=O)N2CCC(C(=O)NCCCN3CCCC3=O)CC2)cc1` gave TRPML1 inh -6, Six1-Eya2 blk 5, D2 PAM -16, D2 agonist -1.8, PINK1 expr mod 0.3% and TRPML1 agonist -0.2.

Ordered by SMILES length (high to low): 3 of the compounds above
For CCOC(=O)c1c(C)[nH]c(C)c1S(=O)(=O)NCC(=O)N1CCN(c2cccc(C)c2)C(C)C1 (configuration not stated) the results were TRPML1 inh -2, PINK1 expr mod 2.1% and TRPML1 agonist 0.4.
For COc1ccc(NC(=O)/C=C/c2ccccc2)c([N+](=O)[O-])c1 the results were TRPML1 inh 48, Six1-Eya2 blk -6, D2 PAM 1, D2 agonist -3.7, PINK1 expr mod 11% and TRPML1 agonist 2.1.
Screening CC(C)CCn1c(O)c(N=NC(=O)c2ccco2)c2ccccc21 returned TRPML1 inh -30, Six1-Eya2 blk -8, D2 PAM -7, D2 agonist -3.4, PINK1 expr mod -1.7% and TRPML1 agonist 0.3.

More structures follow.
CC1(C)Oc2ccc(NC(=O)c3ccco3)cc2O1 was read as TRPML1 inh -5, Six1-Eya2 blk -1, D2 PAM -13, D2 agonist -3.3, PINK1 expr mod 4.1% and TRPML1 agonist -0.5.
`CCOc1ccc(Oc2ccc(S(=O)(=O)N3CCOCC3)cc2N)cc1` gave TRPML1 inh 8, Six1-Eya2 blk -1, D2 PAM -2, D2 agonist -4.7, PINK1 expr mod 3.0% and TRPML1 agonist 1.4.
For COc1ccc2c(CC(=O)N3CCN(S(=O)(=O)c4cccs4)CC3)coc2c1 the results were TRPML1 inh 8, Six1-Eya2 blk 3, D2 PAM -5, D2 agonist -1.0, PINK1 expr mod -3.0% and TRPML1 agonist 0.4.
For Cc1n[nH]c(C)c1CCN(C)Cc1cn(C)nc1-c1ccccc1F the results were TRPML1 inh 7, Six1-Eya2 blk 2, D2 PAM -14, D2 agonist 1.5, PINK1 expr mod -1.0% and TRPML1 agonist -0.6.
`Cc1ccc(Cl)cc1N1CCN(C(=O)CN(c2ccccc2)S(=O)(=O)N(C)C)CC1` gave TRPML1 inh -2, Six1-Eya2 blk -5, D2 PAM -4, D2 agonist 0.4, PINK1 expr mod 1.4% and TRPML1 agonist -0.7.
`COc1cccc(/C=C2/SC(=O)N(CC(=O)N3CCc4ccccc4C3)C2=O)c1OCC(=O)O` gave TRPML1 inh 24, Six1-Eya2 blk -8, D2 PAM 14, D2 agonist 1.2, PINK1 expr mod -2.7% and TRPML1 agonist 2.7.
COc1cccc(S(=O)(=O)NCc2ccc(C(=O)Nc3ccc(C)cc3)cc2)c1 was read as TRPML1 inh -7, Six1-Eya2 blk 0, D2 PAM -13, D2 agonist -0.1, PINK1 expr mod 16% and TRPML1 agonist 0.8.
For Cc1nc2ccccc2n1CCC(=O)Nc1cccc(F)c1 the results were TRPML1 inh 1, Six1-Eya2 blk -5, D2 PAM -20, D2 agonist -0.6, PINK1 expr mod 5.4% and TRPML1 agonist 0.2.
COc1ccccc1C1CCN(C(=O)c2ccco2)CC1 was read as TRPML1 inh 2, Six1-Eya2 blk 0, D2 PAM -5, D2 agonist -2.6, PINK1 expr mod -0.5% and TRPML1 agonist 0.2.
C[C@H](CO)N1C[C@H](C)[C@@H](CN(C)S(=O)(=O)c2cn(C)cn2)Oc2ccc(NC(=O)C3CCCCC3)cc2C1=O was read as TRPML1 inh -11, Six1-Eya2 blk 4, D2 PAM -2, D2 agonist -7.1, PINK1 expr mod 2.5% and TRPML1 agonist -0.5.
For O=C(NNc1nc(-c2ccccc2)cs1)c1ccccc1 the results were TRPML1 inh 28, Six1-Eya2 blk 1, D2 PAM -9, D2 agonist -3.5, PINK1 expr mod 1.7% and TRPML1 agonist 0.4.
O=C(Nc1nnc(COc2ccccc2)s1)Nc1ccccc1F was read as TRPML1 inh 11, Six1-Eya2 blk 15, D2 PAM 2, D2 agonist 4.6, PINK1 expr mod 3.5% and TRPML1 agonist 0.9.
`CCOC(=O)CCCNC(=O)CSc1nnc(-c2ccccc2)c(-c2ccccc2)n1` gave TRPML1 inh -7, Six1-Eya2 blk -7, D2 PAM 5, D2 agonist -2.2, PINK1 expr mod 14% and TRPML1 agonist -0.1.
Screening CCn1c(C)nc2cc(S(=O)(=O)C(F)(F)C(F)C(F)(F)F)ccc21 (configuration not stated) returned TRPML1 inh -2, Six1-Eya2 blk 3, D2 PAM -16, D2 agonist 2.3, PINK1 expr mod 12%[38.3 µM] and TRPML1 agonist -0.5.
`CNC(=O)c1ccc(Oc2ccc(C(=O)NC)cc2)cc1` gave TRPML1 inh 24, Six1-Eya2 blk 0, D2 PAM 2, D2 agonist -2.5, PINK1 expr mod 18%[38.3 µM] and TRPML1 agonist 0.1.
`CC1CCCC(NC(=O)COC(=O)c2ccc(Br)o2)C1C` (configuration not stated) gave TRPML1 inh -5, Six1-Eya2 blk 7, D2 PAM -9, D2 agonist -4.0, PINK1 expr mod -0.6% and TRPML1 agonist -1.2.
`COc1ccc(CCNC(=O)C(=O)NCC(c2cccs2)S(=O)(=O)c2cccs2)cc1` (configuration not stated) gave TRPML1 inh 23, PINK1 expr mod 2.1% and TRPML1 agonist 0.0.
`CN(C)C(=O)c1ccc(NC(=O)c2cccc(S(=O)(=O)N3CCCc4ccccc43)c2)cc1` gave TRPML1 inh 2, Six1-Eya2 blk -10, D2 PAM -17, D2 agonist -1.0, PINK1 expr mod 3.3% and TRPML1 agonist 1.6.
Screening CS(=O)(=O)c1ccc(C(=O)OCc2nnc(-c3ccccc3)o2)cc1[N+](=O)[O-] returned TRPML1 inh 20, Six1-Eya2 blk -9, D2 PAM -13, D2 agonist -0.1, PINK1 expr mod -1.3% and TRPML1 agonist 1.1.
For Cc1c(C(=O)Nc2ccc(Br)cc2F)oc2ccc(S(=O)(=O)N3CCCCC3)cc12 the results were TRPML1 inh -3, PINK1 expr mod -1.0% and TRPML1 agonist -0.5.
`COc1ccc2[nH]c3c(c2c1)CCN1C(=O)C(CC(=O)NCCC2=CCCCC2)C[C@H](C(=O)N2CCOCC2)[C@@]31CCC1CCCC1` (some centres not stated) gave TRPML1 inh 9, Six1-Eya2 blk 4, D2 PAM 1, D2 agonist -0.6, PINK1 expr mod 0.3% and TRPML1 agonist -0.6.

Screens from PubChem.
